# Rango dissoc inh – inhibition of RanGTP-driven Rango-importin beta dissociation | O95149+P62826 | Biochemical FRET Rango-importin beta, RanGTP-induced dissociation | Potency, µM (top dose mostly 46.1 µM), for inactives: at the top dose activity change, negative = inhibition | 340,000 tested, 0.071% active | AID 540253; active means falling FRET ratio curve, often poorly fitted, with flat reads before Ran was added; inconclusive means other falling curves, or compound fluorescence or quenching; inactive means flat or rising ratio curve;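 also: potency is read from the fitted curve at half-maximal effect; % of control where 0% means no effect; nearly all actives have a fitted effect of over 45% in size; -100% = wells without RanGTP and RCC1; the record marks most hits as doubtful in a second field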
#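 FRET read at 45 min, room temperature: inhibitors block the CFP/YFP signal rise when RanGTP (0.6 uM Ran, 2 mM GTP, 0.2 uM RCC1) frees Rango (0.1 uM) from importin beta (0.25 uM). Pre-read after 5 min compound exposure flags interference.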
# GLA inh pH 4.5 – inhibitors of human alpha-galactosidase A at pH 4.5. P06280. purified enzyme, 4-MU-alpha-Gal fluorescence, pH 4.5. activity change, negative = inhibition, % at 105 µM. 230,000 tested, under 10 active. AID 1467; inconclusive = small, poorly fitted or top-dose-only inhibition, or a rising curve; inactive = flat fitted curve, though single readings scatter; no compound was filed as active;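 also: 0% = full activity with enzyme and -100% = basal without enzyme; dose as in the result columns while the protocol names 77 µM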
# Target sequence (P06280 whole entry, looked up): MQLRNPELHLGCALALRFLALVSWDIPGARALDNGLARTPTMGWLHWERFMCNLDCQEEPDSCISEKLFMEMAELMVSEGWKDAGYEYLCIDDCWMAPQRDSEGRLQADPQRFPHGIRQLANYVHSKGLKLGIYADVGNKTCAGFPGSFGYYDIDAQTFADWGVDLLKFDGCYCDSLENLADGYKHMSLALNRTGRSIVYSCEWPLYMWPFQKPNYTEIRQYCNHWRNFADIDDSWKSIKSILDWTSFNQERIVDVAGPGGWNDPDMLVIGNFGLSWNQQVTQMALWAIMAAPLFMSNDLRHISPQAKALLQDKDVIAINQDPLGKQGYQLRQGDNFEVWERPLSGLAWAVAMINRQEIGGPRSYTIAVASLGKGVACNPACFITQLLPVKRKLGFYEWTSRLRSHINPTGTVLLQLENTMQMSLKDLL
# miR-21 FLuc – miR-21 reporter, rising signal; AID 2288; Potency, µM (titrated, usually from 38.3 µM), for inactives: at the top dose reporter change, positive = more light; HeLa miR-21 FLuc reporter, luciferase, 48 h; 340,000 tested, under 10 active; active = well fitted rising curve with a large enough effect; inconclusive = small, poorly fitted or top-dose-only effect; inactive = no such curve, though single readings can be large or run the other way;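 also: % of control where 0% means no effect; miR-21 action dims this reporter so a rising signal means less miR-21 action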
#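 HeLa cells stably expressing CMV-driven firefly luciferase with a downstream miR-21 binding sequence, endogenously expressing miR-21, were treated with titrations (up to about 40uM final) for 48 hours at 37 degree Celsius. Luciferase luminescence was read after lysis.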
# Rango-impB inh – Rango-importin beta binding inhibition | Q14974 | Rango CFP/YFP FRET sensor + importin beta, 45 min | Potency, µM (titrated, usually from 92.2 µM), without a hit: top-dose inhibition of complex formation | 340,000 tested, 0.031% active | AID 540263; active = rising FRET ratio curve, often small or poorly fitted; inconclusive = mostly compound fluorescence or quenching in the first reads; inactive = flat curves in all reads;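 also: potency is read from the fitted curve at half-maximal effect; 0% = DMSO wells and 100% = buffer wells lacking importin beta; nearly all actives have a fitted effect of over 15% in size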
#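 Inhibition scored from the CFP 486 nm/YFP 530 nm FRET ratio 45 min after adding 0.125 microM importin beta to 50 nM Rango biosensor preincubated 5 min with compound (room temperature, PBS with DTT, Tween-20, BSA). No-importin wells as positive control.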
# Starred values were filed as active, the others as inactive; ? = inconclusive; nt = not tested or not shown; & = joins results of further samples. Not all compounds are listed (hit frequency here may not be typical).
# Start of the listing, in advance (two entries):
Structure	miR-21 FLuc	Rango dissoc inh	Rango-impB inh	GLA inh pH 4.5
COc1cccc(-n2c(SCC(=O)N3CCOCC3)nc3c([nH]c4ccccc43)c2=O)c1	nt	?	?	nt
COc1ccc(C(=O)CCC(=O)NCCc2c[nH]c3ccccc23)cc1OC	0%	-17%	1.3%	nt

# All compounds of this part, from the first entry:
Structure	miR-21 FLuc	Rango dissoc inh	Rango-impB inh	GLA inh pH 4.5
COc1cccc(-n2c(SCC(=O)N3CCOCC3)nc3c([nH]c4ccccc43)c2=O)c1	nt	?	?	nt
COc1ccc(C(=O)CCC(=O)NCCc2c[nH]c3ccccc23)cc1OC	0%	-17%	1.3%	nt
CN(Cc1cccc(Cl)c1)C(=O)C1CSC2(C)CCC(=O)N12 (centres undefined)	-5%	-6%	7.5%	nt
N#C/C(=C\C=C\c1ccccc1)C(=O)N1CCCC1	-13%	-1%	0.1%	nt
CCOc1cc2[nH]c(=S)n(CCCN(CC)CC)c(=O)c2cc1OCC	-5%	-9%	0.0%	5
O=S(=O)(c1cccc(S(=O)(=O)N2CCC(N3CCCCC3)CC2)c1)N1CCOCC1	-5%	nt	nt	1
NS(=O)(=O)c1ccc(CCNC(=O)c2cc(-c3cc(Cl)ccc3O)n[nH]2)cc1	-1%	-6%	-5.6%	-5
O=C(O)C1CCCCN1S(=O)(=O)c1cccc2nsnc12 (centres undefined)	3%	1%	-1.8%	2

# An excerpt of these results, field by field:
compound: COc1cccc(-n2c(SCC(=O)N3CCOCC3)nc3c([nH]c4ccccc43)c2=O)c1
- miR-21 FLuc = nt
- Rango dissoc inh = ?
- Rango-impB inh = ?
- GLA inh pH 4.5 = nt

compound: COc1ccc(C(=O)CCC(=O)NCCc2c[nH]c3ccccc23)cc1OC
- miR-21 FLuc = 0%
- Rango dissoc inh = -17%
- Rango-impB inh = 1.3%
- GLA inh pH 4.5 = nt

compound: CN(Cc1cccc(Cl)c1)C(=O)C1CSC2(C)CCC(=O)N12 (centres undefined)
- miR-21 FLuc = -5%
- Rango dissoc inh = -6%
- Rango-impB inh = 7.5%
- GLA inh pH 4.5 = nt

compound: N#C/C(=C\C=C\c1ccccc1)C(=O)N1CCCC1
- miR-21 FLuc = -13%
- Rango dissoc inh = -1%
- Rango-impB inh = 0.1%
- GLA inh pH 4.5 = nt

# (listing goes on)
Structure	miR-21 FLuc	Rango dissoc inh	Rango-impB inh	GLA inh pH 4.5
CCN(/N=C/c1ccc(N(C)C)cc1)c1nc2ccccc2[nH]1	-5%	-6%	-0.8%	3
COc1cccc(/C=N/n2c(-c3cc(C)[nH]n3)n[nH]c2=S)c1O	1%	?	?	-11
CCOC(=O)c1ccccc1NC(=O)COC(=O)CCNS(=O)(=O)c1ccccc1	3%	1%	2.5%	nt
COc1cc(C)ccc1Oc1ccc([N+](=O)[O-])cc1	nt	3%	-1.1%	nt
CCCc1[nH]nc2c1C(c1ccc(OC)c(Cn3nnc4ccccc43)c1)C(C#N)=C(N)O2 (centres undefined)	-9%	2%	-1.2%	6
CCOc1ccc2[nH]c(C)c(CN3CCCCCC3)c(=O)c2c1	3%	3%	2.5%	nt
C[C@H](NC(=O)COc1ccc(Cl)cc1)C(=O)N1CCC2(CC1)NCCc1[nH]cnc12	-1%	-12%	0.1%	nt
O=C(/C=C/c1cccs1)NC(=S)NNC(=O)c1ccccc1O	22%	-7%	2.0%	3
CCCN(Cc1nc(-c2ccc(Cl)cc2)no1)CC1CCCO1 (centres undefined)	-5%	3%	0.3%	-9
CC(C)Cn1c(SCC(=O)Nc2cccnc2Cl)nnc1-c1ccco1	nt	-9%	0.2%	nt
Cc1ccc2nc(Cl)c(/C=N/n3c(C)nnc3C)cc2c1	-3%	-5%	0.7%	1
O=C(CCl)N1c2ccccc2SCC1c1ccccc1 (centres undefined)	?	2%	-0.7%	nt
Cn1c(/C=N/O)nc2ccccc21	1%	0%	0.1%	1
Cc1nc2cc(NS(=O)(=O)c3ccccc3)ccc2n1C	0%	21%	0.3%	8
CCCCCCCCNC(=O)/C(C#N)=C/c1ccc2c(c1)OCCO2	0%	-3%	1.1%	-9
CCCCCCCCNc1nc(Cl)nc(NCCN2CCOCC2)n1	0%	29%	1.7%	-8
COc1cc(CN2CCN(Cc3cccc(OC)c3OC)CC2)cc(OC)c1	-5%	3%	5.5%	nt
CC(C)(CN1CCCC1)NS(=O)(=O)c1ccccc1	3%	-4%	0.3%	nt
COc1ccc(CN(C(=O)c2oc3cc(C)c(C)cc3c2C)C2CCS(=O)(=O)C2)cc1OC (centres undefined)	-15%	5%	?	nt
Brc1ccc(-c2nnc3ccc(N4CCN(c5ccccc5)CC4)nn23)cc1	-7%	-1%	-0.1%	1
CC1CCCCN1C(=O)COC(=O)c1ccc(N2CCCC2=O)cc1 (centres undefined)	nt	-7%	-0.6%	nt
COC(=O)C1=C(C(=O)OC)[C@@H]2N(C)c3ccccc3[C@@]23C[C@@H](C(=O)OC)N(C(=O)c2ccco2)C3=N1	nt	0%	0.8%	7
Cc1nc2cc(C(F)(F)F)ccc2n1C1CCN(CC(=O)N2CCOCC2)CC1	-2%	-4%	-4.3%	3
CSc1ccc(/C=N/NC(=O)c2cc(O)cc(O)c2)cc1	-47%	8%	0.1%	-3
Cc1ccccc1N(CC(=O)NCc1ccc2c(c1)OCO2)C(=O)C1CSC(=O)C1 (centres undefined)	5%	2%	-1.9%	nt
CC(=O)c1ccc(NC(=O)Nc2ccc(NS(=O)(=O)c3ccc(C)cc3)cc2)cc1	24%	-5%	0.5%	4
COc1ccc(NC(=O)C2=C(C)NC(=O)NC2c2cccs2)c(OC)c1 (centres undefined)	-1%	-13%	-0.3%	-5
Cc1[nH]c(=O)[nH]c(=O)c1S(=O)(=O)Nc1ccc(Oc2ccccc2)cc1	0%	-10%	2.1%	3
O=c1[nH]nc(-c2ccccc2)cc1-c1ccccc1	nt	2%	-0.3%	nt
OCCOCCn1c2ccccc2c2ccccc21	-7%	7%	-3.4%	0
O=C(N/N=C\c1ccccn1)C1COc2cc3ccccc3cc2O1 (centres undefined)	-1%	-9%	-7.7%	1
COc1cccc(C(=O)Nc2cccc(OC(C)=O)c2)c1	-3%	-5%	-0.3%	-1
CC(=C/c1ccccc1)/C=N/NC(=O)CSc1nc(C)cc(C)n1	-6%	-8%	0.0%	0
Cc1ccccc1N/C(=N/S(=O)(=O)c1cc(F)ccc1F)c1ccccc1	-15%	6%	3.4%	nt
C[C@H]1CC[C@]2(O[C@H](CCO)C[C@@H](O)[C@@H]2O)O1	1%	-3%	1.4%	10
NS(=O)(=O)c1ccc(CCNC(=O)c2ccc3nccnc3c2)cc1	nt	?	?	nt
CC(C)c1cc(CN2CCOCC2)cc(C(C)C)c1O	-1%	1%	0.7%	-1
COc1cc(Cl)c(C)cc1NC(=O)CNC(C)c1ccccc1OC (centres undefined)	10%	-17%	-0.5%	-4
CCCN(c1ccccc1F)S(=O)(=O)c1cc(-c2cc(C)no2)ccc1OC	20%	11%	2.6%	nt
COc1cccc(N2CCN(C(=O)c3cccn4c(=O)c5c(C)c(C)sc5nc34)CC2)c1	0%	1%	-0.4%	0
CCCOC(=O)c1sc2nc3c(cc2c1N)C(=O)CCC3	-27%	-6%	-1.3%	-16
COCCCNC(=S)N(CCO)Cc1cc2cc3c(cc2[nH]c1=O)OCO3	-3%	?	?	nt
C=CCn1c(C)cc(C(=O)CSc2nnc(Cc3ccccc3)o2)c1C	-27%	-7%	3.5%	-4
COc1ccccc1NC(=O)CCCCCN1C(=O)c2cccc3cccc(c23)C1=O	-9%	0%	0.3%	nt
CCc1ccc(NC(=O)Cn2ncn3c(cc4ccccc43)c2=O)cc1	-3%&-16%	11%	1.6%	nt
COc1ccc(CNC(=O)c2csc3c2CCCC3)cc1	nt	19%	-1.8%	nt
COCCNC(=O)c1ccc(Cn2c(=S)[nH]c3cc4c(cc3c2=O)OCO4)cc1	-8%	-5%	5.7%	-3
Cc1ccc(SCC(=O)NCCc2ccccc2)cc1	-35%	17%	-2.8%	nt
CCC(=O)Nc1nnc(SCC(=O)NCc2ccc3c(c2)OCO3)s1	1%	-8%	-1.0%	nt
Cc1nnsc1C(=O)N1CCCC(Nc2ccc(C(C)C)cc2)C1 (centres undefined)	7%	-5%	-3.3%	nt
CC1(c2ccc3c(c2)OCO3)NC(=O)N(CC(=O)Nc2ccc(N3CCOCC3)cc2)C1=O (centres undefined)	5%	-1%	7.5%	2
CC(C)Cn1c(/C=C/c2ccco2)nc2ccccc21	-26%	7%	?	-20
CCN1CCN(c2nc3ccccc3nc2C(C#N)C(=O)OC2CCCCC2)CC1 (centres undefined)	-3%	?	?	4
COC(=O)c1sc(NC(=O)c2ccc3c(c2)OCO3)c(C#N)c1C	nt	7%	0.4%	nt
CCN1CCN(c2ccc(S(=O)(=O)N3CCCCC3)cc2NC(=O)c2ccc([N+](=O)[O-])o2)CC1	nt	22%	-0.5%	nt
COc1ccc(-c2cccc(C3CC=CC4C3C(=O)N(Cc3ccccc3)C4c3ccc4ccccc4c3)c2)cc1 (centres undefined)	-2%	-12%	1.9%	3

# 2 of the compounds above, with values ahead of the structure.
miR-21 FLuc | Rango dissoc inh | Rango-impB inh | GLA inh pH 4.5 | SMILES
-5% | 3% | 5.5% | nt | COc1cc(CN2CCN(Cc3cccc(OC)c3OC)CC2)cc(OC)c1
nt | 0% | 0.8% | 7 | COC(=O)C1=C(C(=O)OC)[C@@H]2N(C)c3ccccc3[C@@]23C[C@@H](C(=O)OC)N(C(=O)c2ccco2)C3=N1

# Continued.
Structure	miR-21 FLuc	Rango dissoc inh	Rango-impB inh	GLA inh pH 4.5
Cc1nnc(SCC(=O)NNC(=O)COc2ccc(Cl)cc2)n1C	7%	10%	?	nt
COc1ccc(NC(=O)CCC(=O)c2cccs2)c(OC)c1	-15%	1%	-0.7%	nt
COc1ccc(NC(=O)[C@@]2(CC(=O)O)CC(/C=C/c3ccccc3)=NO2)cc1	-1%	4%	6.8%	nt
CCOc1ccc(S(=O)(=O)N2CCC(C(=O)OCc3cccc(OC)c3OC)CC2)cc1	nt	-4%	-3.3%	nt
COc1ccc(NC(=O)CC2Nc3cccc4cccc(c34)NC2=O)cc1 (centres undefined)	1%&0%	-13%	?	-9
COc1ccc(Cl)cc1NC(=O)Cn1nnc(C(=O)NCc2ccc3c(c2)OCO3)c1N	-7%&-1%	10%	2.3%	nt
COc1ccc(-c2cccc(NS(=O)(=O)c3ccc([N+](=O)[O-])cc3)c2)nn1	nt	-2%	0.7%	nt
CCOC(=O)c1cnc(SC)nc1Oc1cccc(NS(=O)(=O)c2ccc(F)cc2)c1	-2%	36%	2.1%	7
Cc1cccc(NC(=O)C(=O)NCC2CCCN2S(=O)(=O)c2ccccc2)c1 (centres undefined)	nt	-4%	6.0%	nt
COc1cc(/C=C(\C#N)C(=O)NCCc2ccccc2)cc(OC)c1O	3%	?	?	0
